gsp agonist = gsp mutant agonism; gsp mutant cells, cAMP HTRF, 30 min; control for the full effect not named in the record; Potency, µM (top dose mostly 76.9 µM), inactives show at the top dose activation (cAMP increase), usual class: activators; hit rate 0.13% among 340,000; active = well fitted activation curve with a large enough effect; inconclusive = small, poorly fitted or top-dose-only effect, or another doubt; inactive = no such curve, though single readings can be large or run the other way; cell line not stated here;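 also: phosphodiesterase inhibitor Ro 20-1724 added with compounds to block cAMP breakdown; potency is read from the fitted curve at half-maximal effect; nearly all actives have a fitted effect of over 60% in size; about a fifth of the inactives were tested at one dose only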
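Cells stably selected in G418 were plated at 2000/well, grown 16-24 hr, then given compounds in DMSO with the PDE inhibitor […] (300 uM solution added) for 30 min at 37C; cAMP was read by HTRF.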
CtBP-E1A blk = CtBP/E1A binding inhibition. AlphaScreen GST-E1A/His-CtBP binding, 1536-well; hits give low values; control for the full effect not named in the record. hit rate 0.49% among 340,000. activity change, % (test concentration not listed). AID 651724; in the data active means activity change below about -65%; inconclusive means about -30% to -65%; inactive means above about -30%; also: % is scaled to controls: 0 for no effect and ±100 for the full control effect; compound concentration not given in the record
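Homogeneous bead-based format: GST-tagged E1A captured on glutathione donor beads, His-tagged CtBP on nickel acceptor beads; compounds precede bead addition by 2 h at 37 °C.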
D2 agonist = human D2 receptor agonism in beta-arrestin assay; AID 624465; hit rate 0.084% among 360,000; activation, % (test concentration not listed); P14416; DiscoveRx PathHunter D2 beta-arrestin, luminescence, 90 min; 100% = 57 uM dopamine signal; in the data active = activation above about 40%; inconclusive = about 15% to 40%; inactive = below about 15%; also: compound concentration not given in the record; the text of the record calls up to 30% inactive
Target sequence (P14416 whole entry, looked up): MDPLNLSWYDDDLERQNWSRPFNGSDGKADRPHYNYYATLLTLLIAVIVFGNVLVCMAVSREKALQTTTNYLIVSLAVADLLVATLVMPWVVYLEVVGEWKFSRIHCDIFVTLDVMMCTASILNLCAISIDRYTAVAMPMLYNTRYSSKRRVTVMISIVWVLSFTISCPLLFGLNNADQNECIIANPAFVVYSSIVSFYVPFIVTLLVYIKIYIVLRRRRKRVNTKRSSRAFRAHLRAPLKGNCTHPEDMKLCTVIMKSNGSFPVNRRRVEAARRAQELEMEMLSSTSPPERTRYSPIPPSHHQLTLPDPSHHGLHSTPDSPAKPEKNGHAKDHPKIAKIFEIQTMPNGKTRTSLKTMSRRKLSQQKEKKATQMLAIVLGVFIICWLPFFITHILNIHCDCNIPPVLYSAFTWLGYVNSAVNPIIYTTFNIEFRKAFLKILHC
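DiscoveRx PathHunter D2 beta-arrestin cells (2,100/well) attached overnight, then compound-stimulated 90 min at 37 C in HBSS/10 mM HEPES/0.1% Tween-20 buffer; beta-galactosidase complementation read by luminescence after 1 h at ambient temperature. Dopamine 57 uM final (EC100) as control.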
Six1-Eya2 inh = blocks human Six1 binding to Eya2 | AlphaScreen GST-Six1/His-Eya2 binding, biochemical; hits give low values; control for the full effect not named in the record | hit rate 0.56% among 360,000 | activity change, % (test concentration not listed) | Q15475+O00167; in the data active = activity change below about -65%; inconclusive = about -30% to -65%; inactive = above about -30%; also: % is scaled to controls: 0 for no effect and ±100 for the full control effect; compound concentration not given in the record
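Homogeneous AlphaScreen proximity assay pairing GST-Six1 with His-tagged Eya2 (added as 5X mix: 250 nM and 500 nM) in 50 mM Tris pH 8.0, 300 mM NaCl, 1 mM TCEP. Glutathione donor and nickel acceptor beads; 1 h, 37 °C, dark.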
gsp antagonist = gsp mutant antagonism; gsp-mutant cells, cAMP HTRF, 30 min; control for the full effect not named in the record; Potency, µM (doses to about 76.9 µM), without a hit: at the highest dose activity change, negative = inhibition, usual class: inhibitors; hit rate 0.4% among 340,000; active = falling curve of any shape with a large fitted effect; inconclusive = falling curve, mostly with a smaller effect; inactive = flat or rising curve; cell line not stated here;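 also: intracellular cAMP measured with PDE inhibitor Ro 20-1724 present during compound exposure; potency is read from the fitted curve at half-maximal effect; % is scaled to controls: 0 for no effect and ±100 for the full control effect; nearly all actives have a fitted effect of over 65% in size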
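Cells in G418 medium, seeded 16-24 h, 37C; buffer exchange to DPBS + 1 mM CaCl2, 0.5 mM MgCl2, 0.05% BSA; cpds in DMSO + […] (300 uM stock), 30 min 37C; HTRF cAMP detection.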
D2 potentiator = potentiates the human D2 dopamine receptor allosterically; P14416; DiscoveRx D2 beta-arrestin cells, luminescence, 90 min; 100% = 57 uM dopamine signal; potentiation, % (test concentration not listed); hit rate 0.23% among 360,000; AID 624464; active = potentiation of 50% or more; inconclusive = 30% to 50%; inactive = 30% or less;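 also: compound concentration not given in the record; tested on top of an EC20 dose of dopamine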
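PathHunter beta-arrestin assay in DiscoveRx D2 cells. Compounds were added with an EC20 of dopamine (50 nM final) for 90 min at 37 deg C. Luminescence was read 1 h after detection reagent, with 57 uM dopamine as the EC100 control.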
The depositor's hits bear a star; & = joins results of further samples; [ ] = dose if it differs, or a comment. The order is random; any-hit rate near 1.4%.

The first two entries, ahead of the listing:
Fc1ccc(-c2cc(C(F)(F)C(F)F)[nH]n2)cc1 was read as gsp agonist -3%[15.4 µM], CtBP-E1A blk 18, D2 agonist -7.1, Six1-Eya2 inh 12, gsp antagonist 8% and D2 potentiator -2.
For CC(C)[C@H](NC(=O)[C@H](Cc1ccccc1)n1c(=O)[nH]c2ccccc2c1=O)C(=O)N1CCC[C@H]1C(=O)O the results were CtBP-E1A blk -9, D2 agonist -3.9, Six1-Eya2 inh 13, gsp antagonist -12% and D2 potentiator -20.

Results, repeating the preview:
Fc1ccc(-c2cc(C(F)(F)C(F)F)[nH]n2)cc1 was read as gsp agonist -3%[15.4 µM], CtBP-E1A blk 18, D2 agonist -7.1, Six1-Eya2 inh 12, gsp antagonist 8% and D2 potentiator -2.
For CC(C)[C@H](NC(=O)[C@H](Cc1ccccc1)n1c(=O)[nH]c2ccccc2c1=O)C(=O)N1CCC[C@H]1C(=O)O the results were CtBP-E1A blk -9, D2 agonist -3.9, Six1-Eya2 inh 13, gsp antagonist -12% and D2 potentiator -20.
Screening Cc1ccccc1-c1nnc(SCC(=O)N(C)c2c(N)n(Cc3ccccc3)c(=O)[nH]c2=O)n1C returned gsp agonist -1%, CtBP-E1A blk 5, D2 agonist -5.1, Six1-Eya2 inh -1, gsp antagonist 14% and D2 potentiator -3.
`COC(=O)C1=C(C)NC(=S)NC1c1ccc(OCC(=O)N2CC(C)OC(C)C2)c(OC)c1` (centres undefined) gave gsp agonist -26%, CtBP-E1A blk 0, D2 agonist 0.0, Six1-Eya2 inh 1, gsp antagonist -25% and D2 potentiator -19.
O=[N+]([O-])c1ccc(N/N=C/c2ccccc2)c(F)c1 was read as gsp agonist 13%, CtBP-E1A blk 20, D2 agonist -4.5, Six1-Eya2 inh 12, gsp antagonist 1% and D2 potentiator -11.
CCCNC(=O)C1(C)CCN(Cc2ccc(Oc3ccccc3)cc2)C1 (centres undefined) was read as CtBP-E1A blk 0, D2 agonist -3.7, Six1-Eya2 inh -8 and D2 potentiator -13.
For O=C(CCS(=O)(=O)c1ccccc1)N1CCN(c2ccc(F)cc2)CC1 the results were gsp agonist inconclusive, CtBP-E1A blk -12, D2 agonist -4.4, Six1-Eya2 inh -11, gsp antagonist 6% and D2 potentiator -1.
For CC(C)N(C(=O)CSc1nnc(CSc2ncccn2)n1C)C(C)C the results were gsp agonist 0%, CtBP-E1A blk -16, D2 agonist -0.2, Six1-Eya2 inh 12, gsp antagonist 8% and D2 potentiator -10.
CCC(C)NC(=O)C1CCN(S(=O)(=O)c2cc([N+](=O)[O-])ccc2Cl)CC1 (centres undefined) was read as gsp agonist inconclusive, D2 agonist -1.1, Six1-Eya2 inh 4, gsp antagonist -8% and D2 potentiator -5.
Screening COc1cc(CNC(=O)c2cccc(COc3ccc(Cl)cc3)c2)cc(OC)c1 returned gsp agonist -10%, CtBP-E1A blk 3, D2 agonist -0.2, Six1-Eya2 inh -4, gsp antagonist -19% and D2 potentiator -5.
`CCOC(=O)C1=C(Nc2ccccc2)CC(C)(O)C(C(=O)OCC)C1c1ccc(Cl)cc1` (centres undefined) gave gsp agonist -8%&-1%, CtBP-E1A blk 0&-12, D2 agonist -3.7&-3.0, Six1-Eya2 inh 6&-10, gsp antagonist -23%&9% and D2 potentiator -8&1.
For CC(=O)c1ccc(NC(=O)Nc2ccc(Cl)cc2)cc1 the results were gsp agonist -4%, CtBP-E1A blk 6, D2 agonist 0.1, Six1-Eya2 inh 0, gsp antagonist -30% and D2 potentiator -7.
CCOC(=O)C1=C(c2cccc(Oc3ccccc3)c2)NC(=S)NC1C (centres undefined) was read as gsp agonist 0%, CtBP-E1A blk -9, D2 agonist -0.2, Six1-Eya2 inh -21, gsp antagonist -11% and D2 potentiator -5.
`CCCCCCCNC(=O)C1(CC2CC(c3cccc(Br)c3)=NO2)CCN(C(=O)C2CCCC2)CC1` (centres undefined) gave gsp agonist -23%, CtBP-E1A blk -12, D2 agonist -4.2, Six1-Eya2 inh inconclusive, gsp antagonist -11% and D2 potentiator -8.
For CC(=O)Nc1ccc(S(=O)(=O)NCCC(=O)OCc2ccc([N+](=O)[O-])cc2)cc1 the results were gsp agonist -7%[15.4 µM], CtBP-E1A blk -1, D2 agonist -2.6, Six1-Eya2 inh -7, gsp antagonist -3% and D2 potentiator 9.
`COC(=O)c1ccc(/C=C/c2c(-c3ccc(OC)cc3)sc3ccccc23)cc1` gave CtBP-E1A blk 11, D2 agonist 0.5, Six1-Eya2 inh 25, gsp antagonist -8% and D2 potentiator 2.
For O=C(CSc1oc(-c2ccco2)nc1S(=O)(=O)c1ccc(Cl)cc1)NCC1CCCO1 (centres undefined) the results were gsp agonist -13%, CtBP-E1A blk 2, D2 agonist -3.2, Six1-Eya2 inh -3, gsp antagonist -14% and D2 potentiator -2.
For C[C@@H](O)C1NC(=O)[C@H](CCCCN)NC(=O)c2cc([N+](=O)[O-])cc(F)c2NCCCC[C@@H](C(N)=O)NC1=O (some centres undefined) the results were CtBP-E1A blk 1, D2 agonist -2.2, Six1-Eya2 inh 0, gsp antagonist 6% and D2 potentiator 1.
`Cc1ccc(S(=O)(=O)CCC(=O)Nc2nc(-c3cccnc3)cs2)cc1` gave gsp agonist 27%, CtBP-E1A blk 6, D2 agonist 0.1, Six1-Eya2 inh 1, gsp antagonist -3% and D2 potentiator -1.
Cc1ccc(Br)c(NS(=O)(=O)c2cccc(C(=O)N3CCNC(=O)C3)c2)c1 was read as gsp agonist -2%, CtBP-E1A blk 38, D2 agonist -2.2, Six1-Eya2 inh -7, gsp antagonist 3% and D2 potentiator -9.
`CC(OC(=O)CCCOc1ccccc1)C(=O)Nc1ccc(Cl)cn1` (centres undefined) gave gsp agonist 30%, CtBP-E1A blk -23, D2 agonist -2.6, Six1-Eya2 inh 9, gsp antagonist 6% and D2 potentiator -11.
Cc1nc2ccccc2n1CC(=O)N/N=C/c1cccnc1 was read as gsp agonist -5%, CtBP-E1A blk 12, D2 agonist 0.0, Six1-Eya2 inh 1, gsp antagonist 8% and D2 potentiator -2.
Screening CCOc1ccccc1NC(=S)N(Cc1cc2ccc(C)cc2[nH]c1=O)CC1CCCN1CC (centres undefined) returned gsp agonist 0%, CtBP-E1A blk -9, D2 agonist 0.3, Six1-Eya2 inh -14, gsp antagonist 4% and D2 potentiator -37.
Screening CN(C)CC(C)(C)CNC(=O)CC1C(=O)NCCN1Cc1ccc(-c2ccccc2)cc1 (centres undefined) returned gsp agonist 30%, CtBP-E1A blk 7, D2 agonist -0.7, Six1-Eya2 inh 4, gsp antagonist -5% and D2 potentiator -2.
For COc1ccc(N2CCN(C(=O)CCNC(=O)Cn3ccc4ccccc4c3=O)CC2)cc1 the results were gsp agonist -27%, CtBP-E1A blk -1, D2 agonist -3.0, Six1-Eya2 inh -7, gsp antagonist -2% and D2 potentiator -8.
C/C(=N\NC(=O)C(O)c1ccccc1)c1ccc(Br)s1 (centres undefined) was read as gsp agonist 28%, D2 agonist -6.8, Six1-Eya2 inh -3, gsp antagonist -5% and D2 potentiator -14.
Cc1ccc(-c2csc3nc(C)n(N)c(=O)c23)cc1 was read as gsp agonist -20%, D2 agonist 1.6, Six1-Eya2 inh 8, gsp antagonist -4% and D2 potentiator 0.
For O=C(NC(=S)Nc1ccc(CN2CCOCC2)cc1)c1ccc2c(c1)OCCO2 the results were gsp agonist 25%[15.4 µM], CtBP-E1A blk -5, D2 agonist -1.6, Six1-Eya2 inh -25, gsp antagonist -3% and D2 potentiator 1.
For COCCn1c(SCC(=O)N2CCCC2)nc2c(c1=O)SCC2 the results were gsp agonist -166%[inhibitor], CtBP-E1A blk 3, D2 agonist -0.7, Six1-Eya2 inh 0 and D2 potentiator -1.
`CC(=O)C1=C(O)C(=O)N(c2ccc(Br)cc2)C1c1ccccc1[N+](=O)[O-]` (centres undefined) gave gsp agonist -21%, CtBP-E1A blk -12, D2 agonist -8.8, Six1-Eya2 inh -3, gsp antagonist -19% and D2 potentiator -3.
CCC1(CC)C(=O)N(C)C(=O)NC1=NCc1ccccc1 was read as gsp agonist 12%, CtBP-E1A blk 2, D2 agonist -1.8, Six1-Eya2 inh 8, gsp antagonist 8% and D2 potentiator -4.
Screening CCOC(=O)C1=C(C)C(c2ccc(OC)cc2)NC(=S)N1 (centres undefined) returned gsp agonist 11%, CtBP-E1A blk -1, D2 agonist -2.8, Six1-Eya2 inh -2, gsp antagonist -3% and D2 potentiator -4.
COc1cc(/C=C/c2[nH]c(=O)[nH]c(=O)c2[N+](=O)[O-])ccc1OCCC(C)C was read as gsp agonist 16%[15.4 µM], D2 agonist 12, Six1-Eya2 inh -3, gsp antagonist -7% and D2 potentiator -2.
`COc1cc(-c2nnc(SCC3(c4ccc(Br)cc4)OCCO3)o2)cc(OC)c1OC` gave gsp agonist -30%[inhibitor], CtBP-E1A blk 0, D2 agonist -2.0, Six1-Eya2 inh -8, gsp antagonist -12% and D2 potentiator -3.
For Cc1nnc(C)c2c(C)n(Cc3ccc4c(c3)OCO4)c(C)c12 the results were gsp agonist 19%, CtBP-E1A blk 2, D2 agonist -2.2, Six1-Eya2 inh -9, gsp antagonist 5% and D2 potentiator -14.
For Cc1[nH]nc(Sc2ccccn2)c1[N+](=O)[O-] the results were gsp agonist -6%[15.4 µM], CtBP-E1A blk 10, D2 agonist -2.4, Six1-Eya2 inh 2, gsp antagonist 3% and D2 potentiator -7.
Nc1nc(SCC(=O)c2c(N)n(C3CC3)c(=O)[nH]c2=O)n[nH]1 was read as gsp agonist -6%[15.4 µM], CtBP-E1A blk 2, D2 agonist 3.1, Six1-Eya2 inh 4, gsp antagonist 11% and D2 potentiator -2.
Screening O=C(Nc1cccnc1)c1ccc(Cl)c(S(=O)(=O)N2CCOCC2)c1 returned gsp agonist 11%[15.4 µM], CtBP-E1A blk 3, D2 agonist -0.1, Six1-Eya2 inh 8, gsp antagonist -1% and D2 potentiator -2.
For COc1cc(C(=O)Nc2cc(C)nn2-c2ccccc2)cc(OC)c1OC the results were gsp agonist 27%, CtBP-E1A blk 0, D2 agonist -5.0, Six1-Eya2 inh -10, gsp antagonist 6% and D2 potentiator -4.
CC1(C)CC(NC(=O)C2CCC(=O)N(Cc3ccccc3F)C2)CC(C)(C)C1 (centres undefined) was read as gsp agonist -25%, CtBP-E1A blk 0, D2 agonist -4.2, Six1-Eya2 inh -3, gsp antagonist 8% and D2 potentiator 11.
For Cc1ccc(CCC(=O)Nc2ccccc2F)s1 the results were gsp agonist 7%, CtBP-E1A blk 2, D2 agonist -2.2, Six1-Eya2 inh 9, gsp antagonist 3% and D2 potentiator -4.
O=C(c1cc2nc(-c3ccccc3)cc(C(F)(F)F)n2n1)N1CCCC1 was read as gsp agonist 28%, CtBP-E1A blk 2, D2 agonist -4.2, Six1-Eya2 inh 5, gsp antagonist 7% and D2 potentiator -3.
For COc1ccc([C@H]2[C@H](C(=O)OC(C)(C)C)N3N=Cc4ccccc4C3C23C(=O)c2ccccc2C3=O)cc1OC (some centres undefined) the results were gsp agonist -7%, CtBP-E1A blk 1, D2 agonist 15, Six1-Eya2 inh -1, gsp antagonist -3% and D2 potentiator inconclusive.

Compound activity from PubChem BioAssay.
